Bioassay records (PubChem BioAssay)
gsp ag: qHTS for Agonist of gsp, the Etiologic Mutation Responsible for Fibrous Dysplasia/McCune-Albright Syndrome: qHTS; gsp mutant cells, cAMP HTRF, 30 min; control for the full effect not named in the record; Potency, µM (series often up to 76.9 µM), for the others: top-dose activation (cAMP increase), actives largely listed as activators; hit rate 0.13% among 340,000; active = well fitted activation curve with a large enough effect; inconclusive = small, poorly fitted or top-dose-only effect, or another doubt; inactive = no such curve, though single readings can be large or run the other way; cell line not stated here;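 further: phosphodiesterase inhibitor Ro 20-1724 added with compounds to block cAMP breakdown; potency means the concentration at half of the fitted maximal effect; nearly all actives have a fitted effect of over 60% in size; about a fifth of the inactives were tested at one dose only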
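Cells in DMEM/10% FBS with G418 were pretreated with compounds in DMSO plus […] (300 uM stock) for 30 min at 37C. cAMP was measured by HTRF (cAMP-d2 plus anti-cAMP antibody-K) after 30 min at room temperature.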
gsp antagonist: qHTS for Antagonists of gsp, the Etiologic Mutation Responsible for Fibrous Dysplasia/McCune-Albright Syndrome: qHTS; gsp-mutant cells, cAMP HTRF, 30 min; control for the full effect not named in the record; Potency, µM (titrated, usually from 76.9 µM), without a hit: at the top dose activity change, negative = inhibition, most hits filed as inhibitors; hit rate 0.4% among 340,000; active = falling curve of any shape with a large fitted effect; inconclusive = falling curve, mostly with a smaller effect; inactive = flat or rising curve; cell line not stated here;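 further: intracellular cAMP measured with PDE inhibitor Ro 20-1724 present during compound exposure; potency means the concentration at half of the fitted maximal effect; on the % scale 0 is the no-effect control and ±100 the full control effect; nearly all actives have a fitted effect of over 65% in size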
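Measurement of cellular cAMP by homogeneous time-resolved fluorescence following a 30 min compound exposure at 37C. The PDE inhibitor […] was present throughout; the assay buffer was DPBS with 0.05% BSA and 0.005% Tween 20.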
Menin-MLL FL inh: qHTS Assay for Inhibitors Targeting the Menin-MLL Interaction in MLL Related Leukemias: Competition With Fluorescein Labeled MLL-derived Peptide. AID 1766, 2009. 290,000 tested, under 10 active. FP activity change, % at 61.4 µM. Fluorescence polarization, fluorescein-MLL peptide displacement from menin; inconclusive = falling polarisation curve, or a change in total fluorescence; inactive = total fluorescence flat and polarisation flat or rising; no compound was filed as active; the % refers to the polarisation; negative = inhibition;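 further: % of control where 0% means no effect; inhibitors lower the polarisation; unlabelled MLL peptide was the positive control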
D2 agonist: Beta-Arrestin HTS for Positive Allosteric Modulators of the Human D2 Dopamine Receptor: Agonists; DiscoveRx PathHunter D2 beta-arrestin, luminescence, 90 min; 100% = 57 uM dopamine signal; activation, % (concentration not given with the values); hit rate 0.084% among 360,000; in the data active = activation above about 40%; inconclusive = about 15% to 40%; inactive = below about 15%; further: compound concentration not given in the record; the text of the record calls up to 30% inactive
Target sequence (P14416 whole entry, looked up): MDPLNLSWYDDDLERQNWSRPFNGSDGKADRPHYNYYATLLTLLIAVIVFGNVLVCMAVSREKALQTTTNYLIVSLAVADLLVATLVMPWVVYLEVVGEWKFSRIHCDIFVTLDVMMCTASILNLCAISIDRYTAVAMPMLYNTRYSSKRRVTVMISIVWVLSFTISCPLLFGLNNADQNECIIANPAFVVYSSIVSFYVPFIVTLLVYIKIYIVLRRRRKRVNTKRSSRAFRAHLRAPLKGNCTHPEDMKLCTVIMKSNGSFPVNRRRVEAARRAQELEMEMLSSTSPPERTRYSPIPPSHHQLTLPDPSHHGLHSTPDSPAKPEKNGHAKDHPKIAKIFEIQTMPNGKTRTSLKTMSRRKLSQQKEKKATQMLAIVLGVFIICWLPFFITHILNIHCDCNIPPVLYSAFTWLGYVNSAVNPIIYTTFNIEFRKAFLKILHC
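DiscoveRx PathHunter D2 beta-arrestin cells (2,100/well) attached overnight, then compound-stimulated 90 min at 37 C in HBSS/10 mM HEPES/0.1% Tween-20 buffer; beta-galactosidase complementation read by luminescence after 1 h at ambient temperature. Dopamine 57 uM final (EC100) as control.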
PINK1 expr mod: A Quantitative High throughput Screen to Identify Chemical Modulators of PINK1 Expression; hit rate 0.2% among 410,000; PINK1 immunofluorescence, high-content cytometry, 24 h; Potency, µM (doses to about 76.6 µM), for the others: top-dose activation (PINK1 increase), hits mostly activators; active = well fitted activation curve with a large enough effect; inconclusive = small, poorly fitted or top-dose-only effect; inactive = flat fitted curve, though single readings scatter; cell line not stated here;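 further: potency means the concentration at half of the fitted maximal effect; % of control where 0% means no effect; nearly all actives have a fitted effect of over 65% in size; a mitochondrial uncoupler was the plate control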
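Decision-based qHTS: stable cells, 24 h exposure to five compound concentrations, CCCP as control. Fixed cells stained for PINK1 plus nuclear, mitochondrial and cell markers, cytometer read.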
Sfp inh: qHTS Assay for Inhibitors of Bacillus subtilis Sfp phosphopantetheinyl transferase (PPTase); 4'-phosphopantetheinyl transferase ffp (Bacillus subtilis), Q9F4F7; Biochemical Sfp PPTase activity, qHTS; Potency, µM, without a hit: max response, negative = inhibition, actives largely listed as inhibitors; hit rate 3.5% among 310,000; AID 1490, 2009; active means well fitted inhibition curve with a large enough effect; inconclusive means small, poorly fitted or top-dose-only effect, or another doubt; inactive means no such curve, though single readings can be large or run the other way;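 further: the enzyme is Sfp with the accession as filed and its product quenches rhodamine fluorescence; potency means the concentration at half of the fitted maximal effect; 0% = enzyme reaction without inhibitor and -100% = no enzyme wells; top concentration of the series not given in the record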
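Sfp 15 nM + cpd, 15 min RT; start w/ rhodamine-CoA 5 uM, BHQ-2-YbbR 12.5 uM (final); 50 mM Hepes pH 7.6, 10 mM MgCl2, 0.01% NP-40, 0.01% BSA; read 525/598 nm at 0 and 30 min.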
ClpP mod: qHTS Assay for Activators of ClpP; Potency, µM (top dose mostly 57.5 µM), for the others: at the top dose activity change, negative = active; purified B. subtilis ClpP, FRET peptide cleavage, 20 min; ATP-dependent Clp protease proteolytic subunit (Bacillus subtilis (strain 168)), P80244; AID 651965, 2013; hit rate 1.9% among 340,000; active = well fitted falling curve with a large enough effect; inconclusive = small, poorly fitted or top-dose-only effect; inactive = no such curve, though single readings can be large or run the other way; further: potency means the concentration at half of the fitted maximal effect; the source files actives as falling curves though it sought activators and does not explain the sign; nearly all actives have a fitted effect of over 65% in size; many hits overshoot -100%
Target sequence (P80244 whole entry, looked up): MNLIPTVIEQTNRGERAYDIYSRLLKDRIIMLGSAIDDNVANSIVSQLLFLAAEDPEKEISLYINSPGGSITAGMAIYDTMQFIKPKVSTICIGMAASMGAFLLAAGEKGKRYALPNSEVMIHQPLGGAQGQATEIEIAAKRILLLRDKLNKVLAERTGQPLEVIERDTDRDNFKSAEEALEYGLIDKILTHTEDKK
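Purified B. subtilis ClpP, 10 microg/mL final in Tris/HCl pH8 with KCl, BSA, glycerol and Tween-20, cleaved an Abz/nitrotyrosine-quenched decapeptide. Fluorescence (ex 320, em 430) was read at 0 and 20 min at room temperature. Delta was normalized to 5.8 microM ADEP and DMSO/no-enzyme controls.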
An asterisk follows results filed as active; ? = inconclusive; . = no result given; & = joins results of further samples; [ ] = dose if it differs, or a comment.

Results follow in this order: gsp ag	gsp antagonist	Menin-MLL FL inh	D2 agonist	PINK1 expr mod	Sfp inh	ClpP mod
Cc1ccc(C(=O)NC(=S)N2CCN(c3ccc([N+](=O)[O-])cc3)CC2)cc1
    -4%	2%	-2.8	2.8	7.5%	-19%	1.7%
CC(C)SCc1cc(N2CCCC2)nc(-c2ccccc2)n1
    5%[15.4 µM]	-10%	3.2	-3.0	2.4%	4%	.
Cn1c(SCC(=O)Nc2ccc3c(c2)OCO3)nnc1C(F)(F)F
    -26%	6%	.	2.3	0.6%	.	-1.4%
CC1(C)Cc2nc(N)c(C(=O)NCCO)cc2CO1
    1%	9%	2.9	-2.7	-1.1%	11%	2.8%
Cn1c(N2CCCC2)nc2c1c(=O)n(Cc1ccc(F)cc1)c(=O)n2C
    9%	9%	-0.1	0.1	1.5%	-9%	0.6%
Cc1ccc(OCC(=O)Nc2ccc(F)cc2)cc1C
    -34%[inhibitor]	3%	1.9	0.0	1.0%[38.3 µM]	1%	-16%
COc1ccc(Cn2c(C)ccc2C)cc1
    ?	6%	6.1	-3.5	-0.7%	-6%	0.0%
C=C(C)[C@@H]1CC=C(CN2CCC(CCOC)(C(=O)OCC)CC2)CC1
    2%	8%	-2.5	-2.0	4.3%	21%	.
O=C(O)CSc1nnc(-c2ccc3c(c2)OCO3)o1
    ?	4%	-0.9	2.6	2.7%[38.3 µM]	8%	-8.0%
CCCCOC(=O)Nc1ccc(N2CCCCC2)cc1
    13%	-3%	10	1.9	0.7%	-26%	-5.5%
COC(=O)c1cc2c(cc1Cl)N1CCCCCC1=NS2(=O)=O
    28%	1%	0.5	0.4	-1.0%	17%	-1.2%
COc1ccc(C(=S)N2CCN(C)CC2)cc1Br
    -2%	9%	-0.4	-3.1	-0.9%	4%	0.1%
C=CCNc1nc(C)c(CNc2c(C)cc(C)cc2C)nc1C#N
    -5%	15%	-15	0.4	6.3%	-12%	-19%
O=C1c2ccccc2C(=O)N1CC(=O)N1c2ccccc2Sc2ccc(C(F)(F)F)cc21
    5%	6%	4.4	-2.4	-0.9%	3%	-2.7%
CCCCN(CC(=O)NC1CCCC1)C(=O)C(=O)Nc1ccc2c(c1)OCCO2
    -6%[15.4 µM]	12%	-1.8	-5.5	1.9%	17%	-2.3%
CCOC(=O)[C@H]1[C@H]2COc3ccccc3[C@@H]2N2C(=O)c3cc(Br)ccc3NC(=O)[C@@]12C
    -72%[inhibitor]	-1%	.	4.0	3.3%	.	0.6%
CCCCCCc1nnc(N)s1
    -6%	4%	-0.5	-2.1	-1.2%[38.3 µM]	-3%	-1.2%
O=C(NCc1cccs1)c1ccc(S(=O)(=O)N2CCCCC2)cc1
    13%[15.4 µM]	16%	-1.0	-0.9	-0.2%	4%	.
CC(=O)c1ccc(S(=O)(=O)N2CCN(C(=O)c3cccc(S(=O)(=O)N4CC(C)OC(C)C4)c3)CC2)cc1 (configuration not stated)
    ?	-2%	.	-1.3	1.1%	.	-2.3%
Cc1ccc(CN(C)C(=O)CSc2nnc3n2CCCCC3)c(C)c1
    ?	4%	.	-1.9	-1.1%	.	-5.3%
COc1cccc(/C=C2\N=C3CCCCCN3C2=O)c1
    -15%	15%	4.2	2.2	0.3%	-7%	-2.7%
Cc1ccccc1C(=O)Nc1cccc(NC(=O)c2ccc(-c3ccc(Br)cc3)o2)c1
    -10%	1%	8.4	-1.7	6.5%	?	139%
COc1ccc(Cl)cc1-c1cc(C(=O)NCc2ccc(F)cc2)[nH]n1
    .	.	.	1.7	-1.1%	.	1.0%
CCOC(=O)C1(Cc2cccc(F)c2)CCN(Cc2ccc(COC)o2)CC1
    8%	3%	1.7	-3.3	-0.1%	9%	-1.9%
COc1ccccc1NC(=O)C1CCCCC1
    -42%[inhibitor]	14%	4.9	-3.5	0.5%	8%	-29%
C=CCC1(NC(C)c2ccccc2)CCCCC1 (configuration not stated)
    12%	3%	-1.2	-2.8	1.6%	4%	-1.8%
COc1ccccc1NC(=O)c1ccc(-n2cccn2)nc1
    10%	3%	3.0	-2.5	-3.1%	20%	-22%
COc1ccc(N2C(=O)CSC2c2ccc([N+](=O)[O-])cc2)cc1 (configuration not stated)
    -7%	-7%	0.0	1.1	2.7%	5%	.
CC(C)c1ccc(NC2CCCN(C(=O)c3cc(C(C)C)[nH]n3)C2)cc1 (configuration not stated)
    -21%	-4%	-7.7	1.0	0.8%	2%	-0.6%
Cc1cccc(NC(=S)NN2CCN(C)CC2)c1C
    -7%	5%	-0.9	-8.5	-1.9%	-5%	-1.3%
c1ccc2c(c1)oc1c(NCc3ccc4c(c3)OCO4)ncnc12
    26%	-1%	1.1	-1.3	-1.1%	-3%	2.2%
Cc1ccc(NC(=O)c2nc[nH]c2C(=O)NCC(=O)OC(C)(C)C)cc1
    .	-9%	0.1	-1.6	4.7%	17%	40%
O=C(CSc1nc(-c2ccc(F)cc2)nc2ccc(F)cc12)Nc1cccc(C(=O)O)c1
    ?	3%	0.0	-3.9	0.5%	-9%	.
Cc1ccc(C)c(OCc2cc(C(=O)N(C)Cc3nccn3C)no2)c1
    6%[15.4 µM]	-2%	.	-2.1	-0.3%	-5%	0.8%
Cn1nnnc1SCC(=O)NCc1cccc(C(=O)O)c1
    2%	2%	-1.6	-0.9	0.5%	15%	0.4%
CC(=O)Nc1cc(-c2ccc(F)cc2)[nH]n1
    -11%[15.4 µM]	5%	1.3	4.5	-0.2%	-5%	.
Cc1cc(C)c2sc(N(CCCN(C)C)C(=O)CN3C(=O)c4ccccc4C3=O)nc2c1
    19%	16%	4.0	-3.9	1.3%	-13%	1.0%
FC(F)(F)COc1nc(N2CCCCC2)nc(N2CCNCC2)n1
    -3%	6%	7.9	-0.9	-0.8%	9%	0.5%
CCn1c(SCC(=O)N2CCCc3ccccc32)nc2c(c1=O)SC(C)C2 (configuration not stated)
    -2%	-26%	1.5	-2.4	1.8%	-2%	0.0%
COc1ccccc1NC(=O)C(=O)N1CCCC1
    -12%	14%	8.2	-2.6	-0.6%	-8%	.
C/C(=N/NS(=O)(=O)c1ccc(Br)cc1)c1ccc(NC(=O)c2ccc(C)o2)cc1
    0%	?	-0.4	0.6	0.8%	30%[activator]	2.1%
CCCCCCCC(=O)OCC(O)CO (configuration not stated)
    .	-1%	3.9&3.0&-0.7	-2.2	0.7%	-6%&22%&22%	-1.2%
CC(=O)Nc1nc2n(n1)C(c1ccc(F)cc1)C=C(c1ccccc1)N2 (configuration not stated)
    -25%	2%	?	-3.6	1.7%	35µM*	?
Cc1cc(C)n(-c2ccc(-n3ccnc3)nn2)n1
    -6%	5%	3.5	1.4	.	-2%	0.4%
Cc1cccc(NC(=O)Nc2c(C)[nH]c(=O)[nH]c2=O)c1C
    -13%	3%	0.1	3.7	0.1%	22%	-1.0%
Clc1ccc(Nc2nc3cccnc3s2)cc1
    29%[15.4 µM]	-55%	-3.1	0.7	-0.3%	14%	.
CN(C)CCO/N=C(\c1ccc(Br)cc1)c1cccnc1
    -2%[15.4 µM]	14%	.	-2.5	-0.8%	.	1.6%
CCCCN(C(=O)CSCc1ccc(C)cc1)c1c(N)n(Cc2ccccc2)c(=O)[nH]c1=O
    -28%[15.4 µM]	-1%	.	-5.4	30%	.	.
O=C(CCSc1nc(-c2ccc3c(c2)OCO3)cc(C(F)(F)F)n1)NCc1ccccc1
    5%	1%	2.5	-3.9	1.6%	4%	-2.9%
CCc1ccc(OCC(=O)OC2CCS(=O)(=O)C2)cc1 (configuration not stated)
    6%	-5%	6.7	0.2	.	12%	0.2%
COc1ccc(N2CCN(C(=O)COC(=O)[C@@H](NC(=O)c3ccccc3Cl)C(C)C)CC2)cc1
    -19%[15.4 µM]	-7%	.	0.0	1.2%	.	.
Cc1ccccc1NC(=O)CSc1nc(N)c(C#N)c(-c2cccs2)c1C#N
    20%	-1%	6.8	0.1	?	?	23%
Cc1ccc(C(=O)C2CCN(CC(=O)Nc3ccc(N(C)C)cc3)CC2)cc1
    -43%[inhibitor]	-14%	1.7	-1.1	-2.5%[38.3 µM]	3%	0.1%
CCN(CC(=O)Nc1c(F)cccc1F)C(=O)C(C)SCc1nc2sc(C)c(C)c2c(=O)[nH]1 (configuration not stated)
    7%	0%	.	-3.8	-2.4%	-5%	-7.3%
CCN(CC)CCN(Cc1cc2cc3c(cc2[nH]c1=O)OCCO3)C(=S)NCC(C)C
    11%[15.4 µM]	7%	4.1	3.0	-0.5%	6%	-3.5%
CCOCCCNC(=O)CN1C(=O)/C(=C\c2ccc(C)cc2)Sc2ccccc21
    -12%	-17%	-0.2	-3.9	8.4%	-24%	-0.6%
COc1ccc(N2CCN(C(=O)CCNC(=O)c3ccc(Br)cc3)CC2)cc1
    13%	-4%	.	0.7	1.9%	.	-2.7%
O=C(CSc1nnnn1Cc1ccccc1)c1ccccc1F
    -29%	-5%	-3.6	6.1	-1.8%	21%	-0.1%
CCCCN(C(=O)CCC(=O)OCC(=O)NCc1ccccc1)c1c(N)n(CCC)c(=O)[nH]c1=O
    24%	11%	.	1.7	0.9%	.	0.2%
